Bioassay records: PubChem BioAssay, several laboratories
PKD1 kinase inh: blocks activity of human protein kinase D1; PKD1 kinase fluorescence polarization assay; inhibition, %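 (about 10 µM by stock and volumes)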; 0.056% of 200,000 active; AID 797;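 active means inhibition of 50% or more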;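 further: controls were vehicle for no effect and a reference inhibitor for full effect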
Target sequence (Q15139 whole entry, looked up): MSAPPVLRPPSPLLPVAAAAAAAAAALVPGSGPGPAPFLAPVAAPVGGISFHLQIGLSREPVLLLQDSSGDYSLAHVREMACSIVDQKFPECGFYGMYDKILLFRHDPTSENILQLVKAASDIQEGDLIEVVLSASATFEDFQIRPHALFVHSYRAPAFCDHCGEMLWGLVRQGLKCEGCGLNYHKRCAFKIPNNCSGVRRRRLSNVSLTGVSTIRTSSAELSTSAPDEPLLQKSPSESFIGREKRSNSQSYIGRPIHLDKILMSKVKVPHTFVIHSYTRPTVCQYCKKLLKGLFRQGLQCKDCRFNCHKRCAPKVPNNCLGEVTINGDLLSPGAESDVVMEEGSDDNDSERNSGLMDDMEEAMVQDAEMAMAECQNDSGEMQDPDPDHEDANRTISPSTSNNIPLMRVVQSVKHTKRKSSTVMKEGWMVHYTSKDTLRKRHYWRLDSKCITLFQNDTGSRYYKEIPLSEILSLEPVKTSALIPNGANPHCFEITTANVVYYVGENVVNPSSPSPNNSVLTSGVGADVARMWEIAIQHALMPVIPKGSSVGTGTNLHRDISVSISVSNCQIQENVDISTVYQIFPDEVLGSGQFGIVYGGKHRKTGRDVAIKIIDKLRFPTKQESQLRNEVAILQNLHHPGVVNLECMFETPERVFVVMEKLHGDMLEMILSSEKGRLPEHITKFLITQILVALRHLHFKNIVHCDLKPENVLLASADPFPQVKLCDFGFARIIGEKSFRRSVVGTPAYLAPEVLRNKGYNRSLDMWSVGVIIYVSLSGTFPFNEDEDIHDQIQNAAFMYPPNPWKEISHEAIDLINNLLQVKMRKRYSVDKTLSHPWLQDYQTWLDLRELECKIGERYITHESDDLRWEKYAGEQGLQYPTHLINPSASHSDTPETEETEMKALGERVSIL
GALR2 agonist: activates the human galanin receptor 2; O43603; GALR2-expressing cells, agonist activation read-out; activation, %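 (tested at 5 µM)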; 0.48% of 140,000 active; AID 803;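 active means above mean plus 3 SD of all compounds, about 5% in these data, not always enough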;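 further: 0% = vehicle buffer wells and 100% = reference agonist at full effect; tested in CHO reporter cells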
RGS16-Gao: RGS16-Galphao interaction regulator (human) | AID 1441 | binding response (% of control), % at 10 µM | 0.38% of 220,000 active | O15492+P09471 | bead-based flow cytometry RGS16-Galphao binding, fluorescence; actives lie on both sides;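 active means below 25% or above 175%, edge rows of some plates excepted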;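 further: Galphao activated by GDP with aluminum fluoride before binding; 100% = wells without compound and 0% = beads without RGS; some results beyond the cut were filed as inactive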
HSV replic up: HSV replication enhancement | HSV replication augmentation in cells, fold increase | maximum fold increase | 0.005% of 220,000 active;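 active means peak rise of 1.5-fold or more in the series; tested in PC3 cells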;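 further: first round at 10 µM; read as green reporter fluorescence; hits show the peak of a series up to 25 µM; 1 = signal of infected wells without compound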
Insulin prom inh: TRM-6 insulin promoter activity inhibition; TRM-6 cells (human fetal islet line), insulin promoter-eGFP reporter, imaging; reporter expression induced with tamoxifen; inhibition, % at 2 µM; 0.9% of 130,000 active; AID 1273;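 active means inhibition above the mean plus 3 SD, with well images judged a real hit on visual review, cut at about 60% in these data, passing the limit was not always enough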
Insulin prom inh cell count: second read-out of Insulin prom inh, no call of its own (marks repeat the call); normalized cell count, %; measured here: cell count, toxicity; reference of the scale not given here;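 cells exposed to compound for 48 h; stained nuclei by imaging scaled within each plate; lower means fewer cells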
HSV replic up primary fold: also measured in HSV replic up; calls as there; fold increase; compound at 10 µM; measured here: primary screen fold increase 10 uM; tested in PC3 cells;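 GFP signal in the first replicate; 1 = infected wells without compound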
* hit, by the source's call; i = inactive; . = no result given.

SMILES | PKD1 kinase inh | GALR2 agonist | RGS16-Gao | HSV replic up | HSV replic up primary fold | Insulin prom inh | Insulin prom inh cell count
O=C(NC1CCCC1)C(c1ccccn1)N(C(=O)c1csnn1)C1CCCCC1 (configuration not stated) | -12.2 | -2.0 | 101.3 | i | 0.89 | -22.6 | 100.0
CN(c1ccc(OCC(=O)N2CCC(C(N)=O)CC2)cc1)S(=O)(=O)c1cccs1 | -5.3 | -1.6 | 99.8 | i | 0.98 | -2.7 | 119.0
N/C(COc1ccccc1)=N\NS(=O)(=O)c1ccccc1 | 13.8 | -0.3 | 99.0 | i | 1.03 | 8.3 | 115.9
Cc1ccccc1NNC(N)=S | -4.1 | . | 99.1 | i | 0.92 | . | .
Cc1ccccc1-n1c(=S)[nH]c2nc3c(cc2c1=O)COC(C)(C)C3 | . | . | 95.7 | i | 0.9 | . | .
CCOC(=O)c1c(C)n(C)c2ccc(OCC(N)=O)cc12 | -13.6 | -1.4 | 104.5 | i | 0.88 | . | .
CC(=O)Nc1ccc(/C=N/N2C(C)CCCC2C)cc1 (configuration not stated) | -1.8 | . | 101.4 | i | 1.05 | . | .
CC(C)=CC(=O)Nc1ccccc1C(N)=O | -3.5 | 0.1 | 108.8 | i | 0.87 | . | .
CCOc1cc(N2CCOCC2)c(OCC)cc1NS(=O)(=O)c1ccc(Cl)s1 | -6.7 | -2.0 | 96.1 | i | 1.07 | . | .
Cc1c(/C(O)=C2\C(=O)C(=O)N(CCN(C)C)C2c2ccccc2)cnn1-c1ccccc1 (configuration not stated) | . | . | 98.6 | i | 0.93 | . | .
Cc1nn(-c2ccccc2)c2c1C(c1ccc(F)cc1F)C(C#N)=C(N)O2 (configuration not stated) | -8.4 | -1.2 | 103.0 | i | 0.96 | -54.7 | 86.8
CCOc1cc(C2C(C#N)=C(N)Oc3n[nH]c(CC)c32)ccc1OCCN1CCOCC1 (configuration not stated) | -3.5 | -0.2 | 103.3 | i | 1.04 | -32.4 | 75.4
C=CCNC(=S)NNC(=O)c1ccco1 | 5.0 | . | 107.5 | i | 1.04 | -16.7 | 118.0
CCCCC(CC)Cn1c(O)c(/C=C2\C=NN=C2c2ccccc2)sc1=S (configuration not stated) | -8.5 | 0.4 | 100.7 | i | 0.87 | -6.1 | 144.0
Cc1ccc(S(=O)(=O)c2nc(S(C)(=O)=O)sc2NCc2ccc3c(c2)OCO3)cc1 | -1.8 | 1.4 | 114.9 | i | 1.17 | . | .
CN1OC2C(=O)N(c3ccccc3)C(=O)C2C1c1ccc(F)cc1 (configuration not stated) | -5.4 | -2.9 | 98.3 | i | 0.73 | 24.1 | 144.6
Cc1cc(C)n2nc(SCC(=O)N(C)c3c(N)n(Cc4ccccc4)c(=O)[nH]c3=O)nc2n1 | -4.5 | . | 108.2 | i | 1 | 18.2 | 223.6
CSc1nc2c(c(=O)[nH]1)C(c1cccs1)C1=C(CCCC1=O)N2 (configuration not stated) | -1.7 | -1.0 | 103.7 | i | 0.92 | . | .
Cc1ccc(N2CC(C(=O)O)CC2=O)cc1 (configuration not stated) | -6.0 | . | 99.9 | i | 0.97 | 44.4 | 86.5
Cc1cccc(Nc2nc(NCc3ccco3)c3ccccc3n2)c1 | 19.1 | -0.5 | 106.6 | i | 0.55 | -21.4 | 121.5
CCOC(=O)c1ccc(C(=O)OCC)nc1 | -0.9 | -2.4 | 147.4 | i | 1 | 0.0 | 67.5
CCOC(=O)C(=CNc1cscc1S(=O)(=O)C(C)C)C(=O)OCC | . | . | 103.2 | i | 0.99 | . | .
O=P(OC1CCCCC1)(OC1CCCCC1)C(Nc1ccccc1)c1cccnc1 (configuration not stated) | . | . | 104.0 | i | 0.96 | . | .
O=C(O)/C=C/c1cn(-c2ccccc2)nc1-c1ccc2c(c1)OCCO2 | . | . | 96.0 | i | 1.11 | . | .
Cc1ccnc(-n2c(C)cc(C=O)c2C)c1 | -11.7 | . | 108.0 | i | 0.87 | . | .
CC1CCN(C(=O)CN(C2CCCCC2)S(C)(=O)=O)CC1 | -6.7 | -1.7 | 97.3 | i | 0.91 | 27.3 | 64.6
C=CCc1c(O)nc(SCC(=O)c2ccccc2)[nH]c1=O | 10.9 | -0.2 | 94.8 | i | 1.02 | 28.9 | 134.3
Cc1ccc(CSc2nncn2-c2ccccn2)cc1 | 1.8 | -1.9 | 99.6 | i | 0.957 | 37.9 | 119.3
CCN1CCN(c2cc(C)c3cc(NC(=O)c4cc(OC)cc(OC)c4)ccc3n2)CC1 | . | . | 103.5 | i | 0.61 | . | .
O=C(NCc1ccccn1)c1ccc(N2CCCC2=O)cc1 | 6.2 | -1.4 | 103.8 | i | 1.03 | 14.3 | 59.6
Cc1nc(C(C)N(C)Cc2nc(Cc3ccccc3F)no2)c(C)s1 (configuration not stated) | . | . | 102.6 | i | 1.17 | . | .
COc1cc(CNC(C)(C)C)cc(Br)c1OCc1cccs1 | 3.7 | 1.3 | 105.0 | i | 0.92 | . | .
Cc1ccccc1OC(=O)Cn1c(C(F)(F)F)nc2ccccc21 | 11.1 | -1.0 | 101.5 | . | . | 5.9 | 48.5
CCCCNC(=O)Cn1cnc([N+](=O)[O-])n1 | -4.2 | . | 102.4 | i | 0.87 | . | .
COc1cccc(/C=N/NC(=O)c2ccc(COc3ccc(Cl)cc3Cl)o2)c1 | -1.9 | 0.6 | 101.9 | i | 0.75 | . | .
Nc1ccccc1-n1cccc1 | . | . | 99.1 | i | 1.22 | . | .
Cc1ccc(C(=O)NCc2ccc(Cl)c(Cl)c2)o1 | -2.4 | -0.7 | 99.7 | i | 0.83 | 3.2 | 79.7
OCC1(CCc2ccccc2)CCN(Cc2cnc(N3CCCC3)s2)CC1 | 5.5 | . | 101.2 | i | 1.2 | . | .
N/C(=N\OC(=O)CCC(=O)O)c1ncc(C(F)(F)F)cc1Cl | -7.6 | . | 104.9 | i | 0.83 | 40.0 | 110.4
O=S(=O)(c1ccccc1)N1CCN(c2nc3ccccc3s2)CC1 | -7.7 | -1.4 | 98.4 | . | . | -3.5 | 101.9
Cc1ccc(S(=O)(=O)N2CCC(=O)N(CCOC(=O)Nc3ccc(C)c(C)c3)CC2)cc1 | 2.5 | -1.6 | 57.7 | i | 0.81 | 5.0 | 105.1
O=C(CCCN1C(=O)c2ccccc2C1=O)N1CCOCC1 | -7.9 | . | 94.1 | i | 1.01 | . | .
Cc1ccc(C(=O)CC(SCC(=O)O)c2ccc([N+](=O)[O-])cc2)cc1 (configuration not stated) | 3.0 | . | 100.3 | i | 1.01 | -16.7 | 96.7
CC1(C)CC(NC(=O)Nc2ccc([N+](=O)[O-])cc2)CC(C)(C)N1 | -3.6 | . | 106.6 | i | 0.87 | -9.1 | 112.9
CCCCOC(=O)Nc1nc(CC(=O)OCC)cs1 | -10.3 | 0.3 | 101.5 | i | 0.94 | -42.1 | 90.9

Shown in CSV form: part of the list above
Compound,PKD1 kinase inh,GALR2 agonist,RGS16-Gao,HSV replic up,HSV replic up primary fold,Insulin prom inh,Insulin prom inh cell count
COc1cccc(/C=N/NC(=O)c2ccc(COc3ccc(Cl)cc3Cl)o2)c1,-1.9,0.6,101.9,i,0.75,.,.
Nc1ccccc1-n1cccc1,.,.,99.1,i,1.22,.,.
Cc1ccc(C(=O)NCc2ccc(Cl)c(Cl)c2)o1,-2.4,-0.7,99.7,i,0.83,3.2,79.7

(further entries)
SMILES | PKD1 kinase inh | GALR2 agonist | RGS16-Gao | HSV replic up | HSV replic up primary fold | Insulin prom inh | Insulin prom inh cell count
O=C(NCc1ccccc1)NC1(C(=O)N2CCN(c3ncccn3)CC2)CCCCC1 | -4.3 | -0.9 | 99.3 | i | 0.977 | . | .
Cc1ccc(S(=O)(=O)NC(CC(=O)NCc2ccco2)c2ccco2)cc1 (configuration not stated) | -12.6 | -3.2 | 100.1 | i | 0.94 | -28.6 | 74.0
COc1ccc(S(=O)(=O)Nc2cc3c4c(oc3c3ccccc23)CC(C)(C)CC4=O)cc1 | -2.8 | -0.6 | 114.0 | i | 0.8 | -86.8 | 86.2
COCCNC(=O)/C(C#N)=C/c1ccc2c(c1)OCO2 | 5.9 | . | 100.6 | i | 0.85 | . | .
Cc1ccc(NC(=O)CCC(=O)NNC(=O)Cc2ccccc2)cc1C | 0.8 | -4.1 | 98.9 | i | 1 | -17.9 | 131.6
CN(C)CCCNC(=O)CCc1nc2ccccc2c(=O)[nH]1 | -3.4 | -2.8 | 98.4 | i | 0.923 | -54.3 | 148.0
COc1ccc2nc(C)cc(SCC(=O)Nc3c(C)cccc3C)c2c1 | 2.0 | 0.2 | 98.7 | i | 0.84 | . | .
CCc1ccc2[nH]c(=O)c(CN(CCCN3CCOCC3)C(=O)Nc3ccc(F)cc3)cc2c1 | -5.7 | 0.1 | 95.8 | i | 0.8 | . | .
COc1cc(C2C3=C(CCCC3=O)Nc3ccc4ncccc4c32)ccc1O (configuration not stated) | -3.8 | . | 101.9 | i | 0.8 | . | .
Fc1cccc(F)c1/C=N/NC(=S)Nc1cccnc1 | -4.4 | . | 98.9 | i | 0.94 | . | .
C/C(NC1CCCCC1)=C(/C#N)C(=O)NCCN1CCOCC1 | -6.9 | 0.2 | 101.9 | i | 1.01 | . | .
O=S(=O)(c1cccs1)N1CCN(CC(O)COc2cccc(Br)c2)CC1 (configuration not stated) | -2.8 | -1.8 | 103.8 | i | 0.88 | -59.3 | 76.3
COc1cc(C(=O)Nc2nnc(SC)s2)c([N+](=O)[O-])cc1OC | -0.2 | . | 103.6 | i | 1.02 | . | .
O=C1CC(Sc2cccs2)C(=O)N1c1ccccc1 (configuration not stated) | . | . | 97.5 | i | 1.04 | . | .
Cc1ccc(N(CC(=O)NC2CCCCCC2)S(=O)(=O)c2c(C)nn(C)c2C)cc1 | -4.8 | -2.6 | 102.0 | i | 0.87 | . | .
COc1ccccc1NC(=S)N(Cc1ccco1)Cc1cc2cc(C)ccc2[nH]c1=O | -12.8 | 0.0 | 157.0 | i | 0.95 | 20.7 | 59.0
CCc1ccc2[nH]c(O)c(N=Nc3nc(-c4ccccc4)cs3)c2c1 | -4.8 | -2.3 | 97.0 | i | 0.96 | 36.8 | 103.1
O=C(Nc1nc2c(s1)CCCC2)C1CCCN1C(=O)c1cccs1 (configuration not stated) | 7.2 | -1.5 | 98.8 | i | 0.89 | . | .
Clc1ccc(-c2noc(CN(Cc3ccccn3)CC3CCCO3)n2)cc1 (configuration not stated) | -9.1 | . | 107.4 | i | 1.07 | . | .
N#Cc1ccc(C(c2nnnn2CCc2ccccc2)N2CCCCCC2)cc1 (configuration not stated) | -5.2 | -1.1 | 112.5 | i | 0.98 | -12.1 | 116.7
COc1ccc(-n2nc(C)cc2Nc2ccccc2C(=O)O)cc1 | . | . | 100.7 | i | 0.66 | . | .
O=C1CC(N2CCN(C(c3ccccc3)c3ccccc3)CC2)C(=O)N1 (configuration not stated) | -19.5 | 5.2 | 97.5 | i | 1.06 | 31.2 | 103.9
Cn1ccnc1SCC(=O)Nc1ccc2c(c1)COC2=O | -4.3 | -1.2 | 102.2 | i | 0.78 | 16.7 | 126.2
O=C(COC(=O)c1ccc([N+](=O)[O-])o1)NC1CCS(=O)(=O)C1 (configuration not stated) | -4.1 | -0.1 | 101.8 | i | 0.88 | 0.0 | 124.1
O=C(CN1C(=O)c2cccc3cccc(c23)C1=O)N1CCN(c2ccccn2)CC1 | -5.1 | 0.3 | 99.6 | i | 0.97 | 8.0 | 179.8
CCOC(=O)CN1CC23C=CC(O2)C(C(=O)Nc2ccc(OC)cc2OC)C3C1=O (configuration not stated) | 1.7 | -2.9 | 102.9 | i | 0.87 | . | .
Cc1cc(=O)[nH]c(SCC(=O)Nc2ccccc2C)n1 | -6.2 | . | 103.8 | i | 1.05 | . | .
CCOc1cccc(OCCOCCN(C)Cc2ccccc2)c1 | -1.6 | -2.6 | 99.5 | i | 0.91 | -23.1 | 85.5
CC(NCc1cccn1C)c1ccccc1 (configuration not stated) | -8.4 | -0.6 | 71.5 | i | 0.95 | 17.8 | 184.2
COc1ccc2cc(CCNC(=O)c3c(-c4ccccc4Cl)noc3C)c(=O)[nH]c2c1 | -10.9 | -1.2 | 94.9 | i | 1.16 | . | .
O=C(NCCc1ccc2c(c1)OCCO2)c1cc(F)cc(F)c1 | -6.2 | -1.3 | 99.5 | i | 1.16 | . | .
Cc1ccc(NC(=O)CNCc2ccccn2)cc1S(=O)(=O)N(C)C | 0.9 | . | 98.5 | i | 1.1 | . | .
O=C(N/N=C/c1ccncc1)c1cc(Br)ccc1OCc1ccccc1 | -1.9 | 0.3 | 102.8 | i | 0.93 | . | .
Cc1ccc2c(C(=O)CN3CCCCC3CCO)c(C)[nH]c2c1 (configuration not stated) | -1.8 | -0.5 | 100.7 | i | 1 | . | .
